Screening data deposited in PubChem BioAssay by ICCB-Longwood Screening Facility, Harvard Medical School.
RVFV N-RNA FP = inhibitors of Rift Valley Fever Virus nucleocapsid-RNA interaction | RVFV N-RNA binding, fluorescence polarization; stronger effect = lower value | % bound, % (test concentration not listed) | P21700 | actives 0.1% (n = 20,000);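 active = between 0 and 58% in either replicate with normal brightness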;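 note: 100 nL library stock added to about 12 µL; 100% = protein and probe without compound and 0% = probe alone; numbers are from one replicate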
Target sequence (P21700 whole entry, looked up): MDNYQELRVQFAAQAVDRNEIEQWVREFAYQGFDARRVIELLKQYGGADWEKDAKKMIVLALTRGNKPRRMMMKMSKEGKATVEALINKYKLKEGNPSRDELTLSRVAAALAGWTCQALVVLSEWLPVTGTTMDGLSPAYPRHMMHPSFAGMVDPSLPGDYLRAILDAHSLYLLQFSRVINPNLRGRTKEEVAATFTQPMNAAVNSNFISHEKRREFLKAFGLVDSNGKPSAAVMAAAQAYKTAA
The depositor's hits bear a star; & = joins results of further samples.

Start of the data: the first seven compounds, ahead of the listing:
SMILES	RVFV N-RNA FP
O=C1[C@H](CC[C@H](O)c2ccc(F)cc2)[C@@H](c2ccc(O)cc2)N1c1ccc(F)cc1	100.3
Cc1ccc(S(=O)(=O)NN(C)C)cc1	99.0
O=C(NCc1ccco1)C1CCN(c2nccc(C(F)(F)F)n2)CC1	97.3
O=c1ccn2c(SCc3ccccc3)nnc2[nH]1	96.4
Cc1c(Cl)cccc1NC(=O)CCCN1C(=O)CCC1=O	88.5
CNc1nc2c([nH]1)c(=O)n(C)c(=O)n2C	96.6
CC(C)=NNC(=O)c1ccccc1	97.6

The list itself, repeating the preview:
SMILES	RVFV N-RNA FP
O=C1[C@H](CC[C@H](O)c2ccc(F)cc2)[C@@H](c2ccc(O)cc2)N1c1ccc(F)cc1	100.3
Cc1ccc(S(=O)(=O)NN(C)C)cc1	99.0
O=C(NCc1ccco1)C1CCN(c2nccc(C(F)(F)F)n2)CC1	97.3
O=c1ccn2c(SCc3ccccc3)nnc2[nH]1	96.4
Cc1c(Cl)cccc1NC(=O)CCCN1C(=O)CCC1=O	88.5
CNc1nc2c([nH]1)c(=O)n(C)c(=O)n2C	96.6
CC(C)=NNC(=O)c1ccccc1	97.6
CC(C(=O)O)c1cccc(Oc2ccccc2)c1 (centres undefined)	97.5
COCCN1C(=O)/C(=C/c2cc(OC)c(O)cc2Br)SC1=S	91.6
O=C1c2ccccc2-c2nnc(-c3cccc(OC(F)(F)F)c3)cc21	93.3
CCN(CC)CCN1C(=O)C(O)=C(C(=O)c2sc(C)nc2C)C1c1ccccn1 (centres undefined)	110.3
Cc1cc(C)nc(SCc2cc(=O)c(OC(=O)c3c(-c4ccccc4Cl)noc3C)co2)n1	106.9
O=c1cc(C(F)(F)F)[nH]c2c(Br)cccc12	88.0
O=S(=O)(N/N=C/c1ccc2c(c1)OCO2)c1ccc(Cl)cc1	99.5
CCOC(=O)C(CC)Sc1nnc(-c2c[nH]c3ccccc23)n1CCOC (centres undefined)	96.9
N#C/C(=C/c1ccccc1)c1cccc(C#N)c1	95.9
NC(=O)NC(=O)CC1S/C(=N/N=C2\CSC(=O)N2)NC1=O (centres undefined)	98.3
Cc1oc(C(=O)O)cc1CSc1ccccc1C(=O)O	99.1
COc1ccc(N=C2SCC(=O)N2Cc2ccccc2)cc1	101.5
CC1=C(C#N)C(c2cc(Br)ccc2O)C(C#N)=C(C)N1	94.5

Next part
SMILES	RVFV N-RNA FP
Cc1ccccc1NC(=O)CCC1COc2ccccc2O1 (centres undefined)	96.0
CC(=O)[C@H]1CCC2C3CC=C4C[C@@H](OC(=O)CCC(=O)O)CC[C@]4(C)C3CC[C@@]21C (some centres undefined)	98.7
O=C1CC(NS(=O)(=O)c2cccnc2)CN1c1ccccc1 (centres undefined)	100.3
Clc1ccc2c(c1)-c1[nH]ncc1CS2	87.7
O=C(NCCSc1c[nH]c2ccccc12)c1ccc(Br)o1	100.9
CCOc1nc(SC)nc2sc3c(c12)CCN(C)C3	94.8
Cc1ccc(S(=O)(=O)/N=C/c2cccnc2)cc1	91.2
CCCCOc1c(Cl)cc(CNC(C)(C)CO)cc1OCC	95.8
NCc1ccc(S(N)(=O)=O)cc1	92.6
C=CCN(CC=C)C(=O)Nc1ccccc1	93.3
CNc1oc(COc2ccc(C)cc2)nc1C#N	97.3
COc1ccc(CC2c3cc(OC)c(OC)cc3CC[N+]2(C)CCC(=O)OCCCCCOC(=O)CC[N+]2(C)CCc3cc(OC)c(OC)cc3C2Cc2ccc(OC)c(OC)c2)cc1OC (centres undefined)	99.3&99.3
Cc1ccccc1NC(=S)NC(=O)C(C)C	92.6
O=C1/C(=C\C=C\c2ccco2)SC(=S)N1NS(=O)(=O)c1ccccc1	93.9
CCN1CCN(C(=O)CSc2ccc(C)cc2)CC1	95.6
Cc1cccc(NC(=O)c2cnc3ccccn3c2=O)c1	98.7
Cc1onc(-c2ccc(Cl)cc2)c1-c1ccnc(SCc2ccccc2)n1	100.3
O=C(C1CCCCC1)N1CC(=O)N2CCc3ccccc3C2C1 (centres undefined)	96.7&95.0&96.3
Cn1nc(-c2ccc(Cl)cc2)[nH]c1=O	93.4
O=C(CC12CC3CC(CC(C3)C1)C2)Nc1ccc(N2CCN(C(=O)c3ccco3)CC2)cc1	89.8

Next part:
SMILES	RVFV N-RNA FP
O=C(CCNS(=O)(=O)c1ccccc1)Nc1ccccc1	93.0
CC1CCCC/C1=N\NS(C)(=O)=O (centres undefined)	94.0
CCOC(=O)CCC(=O)OC1C(OC2C(C)C(OC3CC(C)(OC)C(O)C(C)O3)C(C)C(=O)OC(CC)C(C)(O)C(O)C(C)C(=O)C(C)CC2(C)O)OC(C)CC1N(C)C (centres undefined)	99.9
CC(C)c1ccccc1OCC(=O)c1ccc(O)cc1O	93.4
CC(C)N1CC(C(=O)N2CCN(Cc3ccccc3)CC2)CC1=O (centres undefined)	98.8
CCSC(=O)NC12CC3CC(CC(C3)C1)C2	109.5
Cc1ccc(C(=O)N2CCCC2)cc1NC(=O)c1ccco1	99.9
COC(=O)CSc1nnc(SCC(=O)OC)s1	98.2
CCC(=O)NNc1nc2c(C)c(C)ccc2s1	91.1
Cc1cc(C)nc(SCC(=O)NN=C2CCCC2)n1	91.6
O=c1[nH]c2sc3c(c2c(=O)n1Cc1ccco1)CCCC3	89.8
O=C(Nc1ccc(Cl)c(Cl)c1)Nc1ncc2c(n1)CC(c1ccco1)CC2=O (centres undefined)	92.4
Oc1ccc(Br)cc1C=Nc1nonc1-c1ccccc1	105.5
NS(=O)(=O)c1ccc(NC(=O)Cc2cccs2)cc1	91.7
O=C(N(c1ccccn1)C1CCCCC1)C12CC3CC(CC(C3)C1)C2	91.3
NC1=NC(=O)C(c2ccccc2Cl)S1 (centres undefined)	94.4
CN(C)CCCN1C(=O)C(=O)/C(=C(/O)c2ccc3c(c2)OCO3)C1c1cccnc1 (centres undefined)	94.1
CC(C)(C)NC(=O)C1CCN(S(=O)(=O)c2ccccc2)CC1	93.4
CC1(C)CC(=NOC(=O)c2ccccc2)CC(C)(C)N1[O]	89.6
CC(=O)Nc1cccc(/C(C)=N/NS(=O)(=O)c2ccc(C)cc2)c1	96.0

Rewritten field by field: four of the compounds above
> O=C(Nc1ccc(Cl)c(Cl)c1)Nc1ncc2c(n1)CC(c1ccco1)CC2=O (centres undefined)
  RVFV N-RNA FP = 92.4

> O=c1ccn2c(SCc3ccccc3)nnc2[nH]1
  RVFV N-RNA FP = 96.4

> CC1CCCC/C1=N\NS(C)(=O)=O (centres undefined)
  RVFV N-RNA FP = 94.0

> CC(C)N1CC(C(=O)N2CCN(Cc3ccccc3)CC2)CC1=O (centres undefined)
  RVFV N-RNA FP = 98.8

(further entries)
SMILES	RVFV N-RNA FP
Cc1cccc(OCC(=O)Nc2ccc(CC(=O)O)cc2)c1C	92.7
COc1ccc(C(=O)NCc2nnc(SCC(=O)NO)n2-c2cccc(F)c2)cc1	96.0
N#C/C(=C\c1ccc(OC(=O)c2ccco2)cc1)S(=O)(=O)c1ccccc1	97.2
Nc1ccc(Sc2ccc(Cl)cc2)nc1	101.9
Cc1cn(S(=O)(=O)c2cn(C)nc2C(F)(F)F)nc1C(F)(F)F	97.1
CCCSC(=S)c1c(C)[nH]n(-c2ccccc2)c1=O	93.5
CCOC(=O)c1ccsc1NC(=O)CN1C(=O)c2ccccc2C1=O	93.4
Cc1c(C(=O)Oc2ccccc2F)oc2ccccc12	109.1
O=C1NCCN1CCNS(=O)(=O)c1ccc(F)c(Cl)c1	103.1
Cc1nc(Nc2ncc(C(=O)Nc3c(C)cccc3Cl)s2)cc(N2CCN(CCO)CC2)n1	101.9
O=C(COc1coc(CN2CCN(Cc3ccccc3)CC2)cc1=O)NC1CCCCC1	91.0
Cc1oc(-c2ccccc2)cc1C(=O)/C=C/N(C)C	97.4
CCOc1ccc(NC(=O)CSc2nc(=O)n(CCCN3CCOCC3)c3c2CCCC3)cc1	105.4
COc1ccccc1C(=O)CS(=O)(=O)c1ccc(C)cc1	85.6
O=C(CNCc1ccco1)Nc1ncc(Cc2ccc(Cl)cc2)s1	100.6
Cc1ccc(N2C(S)=C(C#N)C(=O)NC2c2cccs2)cc1 (centres undefined)	99.3
COc1cc(Br)cc(C2C3=C(CCCC3=O)N(c3ccc(F)cc3)C3=C2C(=O)CCC3)c1O	97.8
CCN(C(=O)NCc1ccccc1)C1CCCCC1	97.6
CCCc1cc(=O)[nH]c(SCC(=O)NC)n1	93.4
N[C@@H](Cc1c[nH]c2ccccc12)C(=O)O	96.8

Continued:
SMILES	RVFV N-RNA FP
CC1=CC(C)=N/C1=C/c1c(O)[nH]c(=O)[nH]c1=O	85.4
CCC(=O)Nc1nc(-c2ccccc2)c(C)s1	93.1
Cc1ccc(NC(=O)c2ccccc2-c2cc(C)no2)cc1	96.9
CCOc1cccc2sc(NN)nc12	92.3
CN(C)S(=O)(=O)Nc1cccc(Br)c1	91.5
CC(C)=C1CCC(C)C/C1=N\O (centres undefined)	97.3
N#Cc1c(NC(=O)c2cccc3ccccc23)sc2c1CCCC2	102.7
COc1cc2ncnc(Nc3ccc(O)c(Br)c3)c2cc1OC	100.5
O=C1CCC(C(=O)N2CCN(Cc3ccccc3)CC2)N1 (centres undefined)	89.2
O=C1OCc2ccc(NS(=O)(=O)c3ccc(N4C(=O)CCC4=O)cc3)cc21	96.5
COc1ccc(/C=C2\CCCC3C2=NN(C(=O)c2ccco2)C3c2ccc(OC)c(OC)c2)cc1OC (centres undefined)	95.3
CN1CCN(C(=O)CSc2nc(-c3ccc(F)cc3)cc(C(F)(F)F)c2C#N)CC1	96.6
NC(=O)c1ccsc1NC(=O)c1csc2c1CCCC2	93.8
Cn1nnc2c(C(N)=O)ncn2c1=O	97.7&95.8&97.8
C=C1Cn2c(nnc2-c2sc3ccccc3c2Cl)S1	90.2
COc1cc(Nc2ncc3ccn(-c4cccc(CCC#N)c4)c3n2)cc(OC)c1OC	101.4
Oc1ccc(SSc2ccc(O)cc2)cc1	100.3
O=C(Nc1ccccc1)ON=C1CCCC1	91.9
CCOC(=O)C1CCCCN1Cc1ccc(C)cc1 (centres undefined)	87.5
CSc1cccc(NC(=O)CNS(=O)(=O)c2ccc(C)cc2)c1	96.9

Some of the entries so far, as labelled records.
COc1cc2ncnc(Nc3ccc(O)c(Br)c3)c2cc1OC
- RVFV N-RNA FP: 100.5
O=C1CCC(C(=O)N2CCN(Cc3ccccc3)CC2)N1 (centres undefined)
- RVFV N-RNA FP: 89.2
O=C1OCc2ccc(NS(=O)(=O)c3ccc(N4C(=O)CCC4=O)cc3)cc21
- RVFV N-RNA FP: 96.5
COc1ccc(/C=C2\CCCC3C2=NN(C(=O)c2ccco2)C3c2ccc(OC)c(OC)c2)cc1OC (centres undefined)
- RVFV N-RNA FP: 95.3

More structures follow.
SMILES	RVFV N-RNA FP
COc1ccc2nc(Nc3nc4ccccc4s3)sc2c1	90.9
Cc1noc(C)c1-c1nc(CS(=O)(=O)c2ccsc2)no1	91.7
CCCCOc1ccc2c(c1)C(=O)c1cc(O)ccc1-2	93.8
CSCCNC(=O)Nc1ccc(Cl)cc1	91.6
CC(=O)N1CCN(C(c2ccccc2)c2ccccc2)CC1	90.4
COc1ccccc1-n1c(SC)nc2ccccc2c1=O	87.4
CCC(Oc1cccc(Cl)c1)C(=O)NN1CCN(C)CC1 (centres undefined)	99.9
Cc1ccc(S(=O)(=O)N(C)CC(=O)N2CCC(C)CC2)cc1	109.8
O=C(CN1CCCCC1)Nc1nonc1NC(=O)CN1CCCCC1	92.6
Fc1ccc(-n2c(Cc3ccsc3)n[nH]c2=S)cc1	96.6
CCN(CC)S(=O)(=O)c1ccc(Cl)c(C(N)=O)c1	85.8
COC(=O)C1=CN(CC(C)C)C=C(C(=O)OC)C1c1cccs1	99.3
Cc1cc(C)nc(SCc2csc(N)n2)n1	94.4
CC(C)CN1C(=O)c2ccc(C(=O)O)cc2C1=O	94.2
O=C1CC(C2CCCC=C2N2CCOCC2)C(=O)N1Cc1ccccc1 (centres undefined)	96.0
CC(=O)Oc1c(C)cc(O)c2ccccc12	93.0

Looked up one by one from the entries so far (3):
SMILES	RVFV N-RNA FP
CCC(Oc1cccc(Cl)c1)C(=O)NN1CCN(C)CC1 (centres undefined)	99.9
CSCCNC(=O)Nc1ccc(Cl)cc1	91.6
Fc1ccc(-n2c(Cc3ccsc3)n[nH]c2=S)cc1	96.6

Only part of the results is shown; count on the stated rates, not on these rows.
